gsp ag: gsp mutant agonism. 340,000 compounds, 0.13% hits. gsp mutant cells, cAMP HTRF, 30 min; control for the full effect not named in the record. Potency, µM (series often up to 76.9 µM), for inactives: top-dose activation (cAMP increase), actives largely listed as activators; active = well fitted activation curve with a large enough effect; inconclusive = small, poorly fitted or top-dose-only effect, or another doubt; inactive = no such curve, though single readings can be large or run the other way; cell line not stated here;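 further: phosphodiesterase inhibitor Ro 20-1724 added with compounds to block cAMP breakdown; potency means the concentration at half of the fitted maximal effect; nearly all actives have a fitted effect of over 60% in size; about a fifth of the inactives were tested at one dose only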
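Cells stably selected in G418 were plated at 2000/well, grown 16-24 hr, then given compounds in DMSO with the PDE inhibitor […] (300 uM solution added) for 30 min at 37C; cAMP was read by HTRF.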
Menin-MLL FL inh: inhibitors of human menin-MLL interaction, wild-type MLL peptide | Fluorescence polarization, fluorescein-MLL peptide displacement from menin | FP activity change, % at 61.4 µM | 290,000 tested, under 10 active; inconclusive = falling polarisation curve, or a change in total fluorescence; inactive = total fluorescence flat and polarisation flat or rising; no compound was filed as active; the % refers to the polarisation; negative = inhibition;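 further: % of control where 0% means no effect; inhibitors lower the polarisation; unlabelled MLL peptide was the positive control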
TRPML1 ag: human mucolipin-1 channel agonism; Q9GZU1; TRPML1-expressing cells, Ca2+ dye fluorescence, FDSS; host cell line not named in the record; reference of the full effect not given here; activation, % (test concentration not listed); 410,000 compounds, 0.12% hits; AID 624414; in the data active = activation above about 50%; inconclusive = about 30% to 50%; inactive = below about 30%; further: 0% is about no effect; the text of the record puts the active cut at 80%
Target sequence (Q9GZU1 whole entry, looked up): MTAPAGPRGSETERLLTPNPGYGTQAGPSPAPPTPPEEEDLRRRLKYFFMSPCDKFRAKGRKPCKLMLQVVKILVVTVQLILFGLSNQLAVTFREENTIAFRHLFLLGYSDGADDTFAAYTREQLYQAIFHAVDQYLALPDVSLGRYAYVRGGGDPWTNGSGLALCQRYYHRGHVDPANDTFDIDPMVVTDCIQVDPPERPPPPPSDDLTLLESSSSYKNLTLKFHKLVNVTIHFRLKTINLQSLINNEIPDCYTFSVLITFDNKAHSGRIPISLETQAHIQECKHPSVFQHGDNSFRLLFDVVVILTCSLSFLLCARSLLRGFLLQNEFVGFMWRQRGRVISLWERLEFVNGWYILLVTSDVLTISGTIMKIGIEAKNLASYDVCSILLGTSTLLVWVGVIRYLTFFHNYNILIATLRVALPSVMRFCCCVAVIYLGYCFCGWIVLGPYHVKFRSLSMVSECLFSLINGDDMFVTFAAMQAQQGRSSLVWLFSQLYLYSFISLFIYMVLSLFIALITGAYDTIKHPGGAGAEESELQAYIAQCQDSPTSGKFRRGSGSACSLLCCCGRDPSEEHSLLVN
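Agonist activity was taken from a 110 s kinetic Ca2+ dye read on the FDSS after pinning compounds onto TRPML1-DL cells. The cells were seeded at 1,500/well with Tet inducer, incubated about 16 h, then dye-loaded at room temperature.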
ClpP mod: qHTS Assay for Activators of ClpP; ATP-dependent Clp protease proteolytic subunit (Bacillus subtilis (strain 168)), P80244; purified B. subtilis ClpP, FRET peptide cleavage, 20 min; Potency, µM (top dose mostly 57.5 µM), inactives show at the top dose activity change, negative = active; 340,000 compounds, 1.9% hits; AID 651965, 2013; active = well fitted falling curve with a large enough effect; inconclusive = small, poorly fitted or top-dose-only effect; inactive = no such curve, though single readings can be large or run the other way; further: potency means the concentration at half of the fitted maximal effect; the source files actives as falling curves though it sought activators and does not explain the sign; nearly all actives have a fitted effect of over 65% in size; many hits overshoot -100%
Target sequence (P80244 whole entry, looked up): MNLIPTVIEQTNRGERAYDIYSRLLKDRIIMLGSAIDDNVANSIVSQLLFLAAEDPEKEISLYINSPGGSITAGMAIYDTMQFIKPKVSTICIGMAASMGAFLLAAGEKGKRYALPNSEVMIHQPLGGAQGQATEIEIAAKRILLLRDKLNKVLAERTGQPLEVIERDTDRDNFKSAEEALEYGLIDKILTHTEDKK
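FRET quenching reversal measured ClpP activation: 10 microg/mL B. subtilis ClpP at pH 8 with the FRET-FV decapeptide, read at 430 nm after 320 nm excitation. The 20-min minus 0-min signal was scaled between DMSO/no-enzyme wells and ADEP (5.8 microM final).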
TRPML1 blocker: human mucolipin-1 channel inhibition; 390,000 compounds, 0.02% hits; Q9GZU1; TRPML1-inducible cells, Ca2+ dye fluorescence, FDSS; stronger effect = lower value; inhibition of EC80 agonist-evoked calcium signal; AID 624415; activity change, negative = inhibition, % (concentration not given with the values); in the data active means activity change below about -50%; inconclusive means about -30% to -50%; inactive means above about -30%;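 further: stimulus is agonist 54-4 at its EC80 concentration; on the % scale 0 is the no-effect control and ±100 the full control effect; the text of the record puts the active cut at -80%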
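TRPML1-DL cells, Tet-induced overnight (~16 h, 37 °C) at 1,500 cells/well, were loaded with Ca8 no-wash dye plus quencher for 45-90 min at room temperature. Compounds were pinned during FDSS kinetic reading; agonist 54-4 at EC80 (4 uM final) then added.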
gsp antagonist: antagonizes gsp, the McCune-Albright syndrome mutation | gsp-mutant cells, cAMP HTRF, 30 min; control for the full effect not named in the record | Potency, µM (titrated, usually from 76.9 µM), for inactives: top-dose activity change, negative = inhibition, actives largely listed as inhibitors | 340,000 compounds, 0.4% hits; active = falling curve of any shape with a large fitted effect; inconclusive = falling curve, mostly with a smaller effect; inactive = flat or rising curve; cell line not stated here;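 further: intracellular cAMP measured with PDE inhibitor Ro 20-1724 present during compound exposure; potency means the concentration at half of the fitted maximal effect; on the % scale 0 is the no-effect control and ±100 the full control effect; nearly all actives have a fitted effect of over 65% in size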
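Cells in G418 medium, seeded 16-24 h, 37C; buffer exchange to DPBS + 1 mM CaCl2, 0.5 mM MgCl2, 0.05% BSA; cpds in DMSO + […] (300 uM stock), 30 min 37C; HTRF cAMP detection.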
An asterisk follows results filed as active; ? = inconclusive; nt = not tested or not shown; [ ] = remark or other dose.

item | Compound | ClpP mod | gsp ag | Menin-MLL FL inh | TRPML1 ag | TRPML1 blocker | gsp antagonist
1 | O=C(COC(=O)c1ccc(Br)cc1)NC(=O)NCc1ccccc1 | -1.4% | 14% | nt | 3.2 | -14 | 11%
2 | COC(=O)c1nn(-c2cccc(C(F)(F)F)c2)ccc1=O | 0.0% | -4% | -7.3 | 1.3 | -6 | 7%
3 | Cc1ccc(NC(=O)C2CCCN(S(=O)(=O)c3ccc4c(c3)CCCC(=O)N4)C2)cc1Cl (configuration not stated) | 1.4% | nt | nt | 2.7 | 16 | nt
4 | CN1CCc2c(sc(NC(=O)CSc3ccccc3)c2-c2nc3ccccc3s2)C1 | -1.5% | nt | nt | 59* | -12 | nt
5 | COc1c(Cl)cc(C(=O)Nc2ccccc2-c2ccccc2)cc1Cl | ? | -39%[inhibitor] | 4.3 | 1.4 | 15 | -6%
6 | O=C(O)c1cn(-c2ccc(F)cc2)c(=O)c2ccccc12 | nt | -12% | -4.1 | -0.4 | -6 | 11%
7 | O=C(NNC(=S)NC(=O)C12CC3CC(CC(C3)C1)C2)c1ccncc1 | 17% | -4% | 0.7 | ? | -2 | -17%
8 | Oc1cc2ccccc2cc1-c1n[nH]c(=S)n1Cc1ccco1 | 4.8% | 2% | 1.8 | 1.4 | ? | -14%
9 | O=C(NCc1cccnc1)C(=O)NCC(c1cccnc1)N1CCN(c2ccccc2F)CC1 (configuration not stated) | -2.8% | nt | nt | 1.8 | 14 | nt
10 | CN1C(=O)CC(N2CCN(c3ccc(Cl)c(Cl)c3)CC2)C1=O (configuration not stated) | -2.7% | 10% | -5.8 | 0.0 | -13 | -12%
11 | Cc1ccc(NC(=O)CSc2nc3[nH]ncc3c(=O)[nH]2)cc1 | nt | 6%[15.4 µM] | -4.2 | -0.2 | -3 | 14%
12 | CN(C(=O)c1cncc(Br)c1)c1c(N)n(Cc2ccccc2)c(=O)[nH]c1=O | nt | 8%[15.4 µM] | nt | -0.2 | 42 | 4%
13 | CCc1ccc(C2CC(c3cccc(Cl)c3)n3nc(N)nc3N2)cc1 (configuration not stated) | 0.6% | 4% | 5.6 | 1.8 | -12 | -13%
14 | O=C(CNc1cccc2ccccc12)N/N=C/c1ccc[nH]1 | nt | ? | 0.2 | -0.1 | -5 | 3%
15 | Nc1ncc(Br)cc1S(=O)(=O)NCCC(=O)Nc1cccc(Cl)c1 | 1.1% | -85%[inhibitor] | -1.6 | 0.6 | -5 | -8%
16 | Cc1ccc(N2CCN(S(=O)(=O)N(C)C)CC2)c(C)c1 | -2.3% | -40%[inhibitor] | 3.8 | -0.3 | 13 | 1%
17 | COc1ccc(OC)c(S(=O)(=O)NC2CCCCC2)c1 | -1.6% | 11% | 4.0 | -0.5 | 6 | -8%
18 | O=C(CCCSc1nc2ccccc2s1)NCc1ccc2c(c1)OCO2 | -1.6% | 9% | 5.8 | 2.1 | 16 | -4%
19 | Cc1c(C(=O)N2CCOCC2)oc2ccc(S(=O)(=O)N3CCCCCC3)cc12 | -2.4% | -1% | -0.1 | -0.6 | -3 | 5%
20 | COc1cc(/C=C2\SC(=O)N(CC(=O)Nc3ccccc3F)C2=O)cc(Cl)c1O | nt | ? | ? | ? | 5 | ?

One compound at a time, as listed above. Screens in order: ClpP mod, gsp ag, Menin-MLL FL inh, TRPML1 ag, TRPML1 blocker, gsp antagonist
CN1C(=O)CC(N2CCN(c3ccc(Cl)c(Cl)c3)CC2)C1=O (configuration not stated) reads -2.7%, 10%, -5.8, 0.0, -13, -12%
Cc1c(C(=O)N2CCOCC2)oc2ccc(S(=O)(=O)N3CCCCCC3)cc12 reads -2.4%, -1%, -0.1, -0.6, -3, 5%
COc1c(Cl)cc(C(=O)Nc2ccccc2-c2ccccc2)cc1Cl reads ?, -39%[inhibitor], 4.3, 1.4, 15, -6%
Cc1ccc(N2CCN(S(=O)(=O)N(C)C)CC2)c(C)c1 reads -2.3%, -40%[inhibitor], 3.8, -0.3, 13, 1%

Further records.
item | Compound | ClpP mod | gsp ag | Menin-MLL FL inh | TRPML1 ag | TRPML1 blocker | gsp antagonist
21 | O=C(COC(=O)c1ccc(F)cc1)NCCCc1ccccc1 | -0.1% | -7% | -2.1 | nt | nt | 7%
22 | CCOC(=O)C(NC(=O)CC(C)C)(Nc1sc(C)c(CC)c1C#N)C(F)(F)F (configuration not stated) | -0.7% | 24%[15.4 µM] | 4.7 | 0.8 | 12 | -18%
23 | C=CCOC(=O)C1=C(C)NC(=O)NC1c1ccc(N(C)C)cc1 (configuration not stated) | -1.6% | -8%[15.4 µM] | 2.0 | -0.2 | -13 | -11%
24 | COC(=O)c1ccc(C2C(Oc3ccc(OC)cc3)C(=O)N2CCc2ccc(F)cc2)cc1 (configuration not stated) | -1.4% | -4% | -2.1 | 1.5 | -17 | 0%
25 | COc1ccc(/C=C/C(=O)OCC(=O)NC2CCS(=O)(=O)C2)cc1 (configuration not stated) | -7.0% | 1% | nt | -0.6 | 4 | 2%
26 | Cc1ccc(Nc2cccc(C(F)(F)F)c2)nn1 | 0.5% | -23%[15.4 µM] | nt | -0.5 | -14 | 10%
27 | CC1(C)Oc2ccc(C(=O)NC3CCCC3)cc2N(CC(=O)NC2CCCCC2)C1=O | -1.4% | 3% | 0.3 | 0.5 | 4 | -5%
28 | O=C(C(c1ccccc1)N1CCOCC1)N1CCOCC1 (configuration not stated) | 1.5% | 8% | 5.0 | 0.6 | -19 | 8%
29 | Cc1ccc(C(=O)NCC(=O)NCc2ccccc2F)s1 | nt | -11%[15.4 µM] | nt | -0.2 | -10 | -2%
30 | O=C(Oc1ccccc1Cl)c1ccc(N2CCOCC2)c([N+](=O)[O-])c1 | 1.7% | -18% | 12 | -0.1 | 47 | 4%
31 | COc1cc(/C=N/NC(N)=O)ccc1OCC(=O)Nc1ccc(C)c(C)c1 | -1.9% | ? | -0.1 | 1.6 | -16 | 9%
32 | COCCOC(=O)c1c(NC(=O)CN2CCc3ccccc32)sc(C(N)=O)c1C | -1.1% | ? | 0.8 | 0.5 | -17 | ?
33 | O=C1C(Cl)=C(N2CCCCCC2)C(=O)N1c1ccc(Cl)cc1 | 0.0% | 3% | ? | 3.0 | -2 | -22%
34 | CCOc1ccc(N/C(=N/c2nc(C)cc(C)n2)NC(=O)CC)cc1 | 1.1% | -1% | 0.0 | -0.8 | -2 | 2%
35 | COc1ccc(CCCc2nnc(SCc3nc4ccccc4c(=O)[nH]3)n2C)c(C)c1 | 0.1% | 6% | 0.2 | 0.9 | -1 | -13%
36 | O=C(Nc1ccc2c(c1)C(=O)NC2=O)c1ccc(S(=O)(=O)N2CCCC2)cc1 | 4.7% | 37% | 2.4 | 0.2 | 12 | 0%
37 | Cc1ccccc1C(=O)N1CCC(C(=O)NN2C(=O)NC3(CCCCC3)C2=O)CC1 | 1.9% | 13% | nt | 1.5 | -9 | 14%
38 | COc1c(O)cnn(-c2ccccc2)c1=O | -0.5% | -80%[inhibitor] | -7.2 | 4.8 | 7 | 9%
39 | Cc1cccc2cc(CN(Cc3cccnc3)C(=O)c3ccccc3F)c(Cl)nc12 | -8.8% | 10% | 1.0 | 2.5 | 49 | -12%
40 | O=c1c(-c2ccc3c(c2)OCCO3)coc2cc(OC3OC(CO)C(O)C(O)C3O)ccc12 (configuration not stated) | nt | -9%[15.4 µM] | 1.3 | -0.8 | 5 | 11%
41 | CC1=C(C)/C(=N\OC(=O)/C=C/c2ccccc2)C=CC1=O | 1.2% | -25% | 0.3 | 0.0 | 34 | -2%
42 | Cc1c(NC(=O)CSCc2ccccc2)cccc1C(=O)O | 1.2% | -40%[inhibitor] | -3.4 | -0.7 | -1 | 2%
43 | CC(C)(C)N(Cc1ccccc1)C(=O)COC(=O)c1ccccc1SCC(=O)N1CCCC1 | nt | 20%[15.4 µM] | nt | 1.5 | -1 | -28%
44 | CN(C)c1cccc(NC(=O)C2Cc3c(-c4ccccc4Oc4ccccc4)ccnc3O2)c1 (configuration not stated) | -25% | nt | nt | 0.7 | 2 | nt
45 | CCCCCCCNC(=O)c1ccc(N2CCC3(CC2)OCCO3)c([N+](=O)[O-])c1 | 0.3% | 23% | -0.6 | 0.0 | 7 | -19%
46 | CC1CC(C)CN(C(=O)CNC(=O)c2ccc3ccccc3c2)C1 (configuration not stated) | -0.7% | 20% | 1.4 | 0.2 | -2 | -13%
47 | CCOc1cc(CNC(C)C)c(Cl)cc1OCC(=O)NCCc1ccccc1 | 0.4% | 5% | 3.0 | -0.2 | 1 | -2%
48 | CC(C)C(=O)N1CCN(c2ccc(NC(=O)c3ccc(Br)o3)cc2)CC1 | -0.5% | -43%[inhibitor] | 3.2 | -0.7 | -5 | -5%
49 | O=C(CN1CCCCC1)NNC(=O)c1ccc([N+](=O)[O-])cc1 | -1.6% | -9% | 0.3 | 0.2 | -14 | 5%
50 | Cc1ccc(C)c(NC(=O)Cn2nnc(-c3ccc(N4CCOCC4)cc3)n2)c1 | 1.2% | ? | -1.3 | 0.1 | 0 | 8%
51 | CCN(CC)CCOC(=O)c1ccc(NC(=O)COc2cc(=O)n(CC)c3ccccc23)cc1 | -4.6% | 12% | 3.5 | -0.3 | 3 | -5%
52 | Cc1n[nH]c(C)c1CCNCc1ccc(OCC(O)CN2CCCCC2)cc1 (configuration not stated) | nt | 16%[15.4 µM] | 2.6 | 0.5 | 0 | nt
53 | COc1ccc(Cl)cc1-n1c(C)cc(C=O)c1C | 32µM* | 14% | 4.3 | 2.4 | -3 | 0%
54 | Cc1cccn2cc(-c3cc4ccccc4oc3=O)nc12 | 0.9% | 11%[15.4 µM] | 7.6 | -0.5 | 0 | 5%
55 | COc1ccccc1N1C(=O)CC(N2CCN(c3ccc([N+](=O)[O-])cc3)CC2)C1=O (configuration not stated) | 2.0% | 8% | -1.3 | 0.0 | -16 | -16%
56 | CCCC(=O)Nc1nnc(S(=O)(=O)N2CCCC2)s1 | -3.9% | 1% | -0.4 | -0.4 | 5 | 6%
57 | CCn1cc2nc(SCc3cccc(C(F)(F)F)c3)n(Cc3ccc(OC)cc3)c(=O)c2n1 | -6.6% | nt | nt | 0.4 | 31 | nt
58 | CC(C)c1ccc(NC(=O)c2sccc2-n2cccc2)cc1 | 1.5% | ? | -1.1 | 4.2 | -6 | -2%
59 | CCOc1ccc(NC(=O)CCc2c(C)nn(-c3ccc(N4CCCCC4)nn3)c2C)cc1 | 1.7% | -1% | nt | 2.4 | -10 | -26%
